VDR inh = vitamin D3 receptor (human) inhibition. Potency, µM, for inactives: max response, negative = inhibition, most hits filed as inhibitors. hit rate 0.93% among 400,000. AID 504847. VDR-SRC2-3 peptide fluorescence polarization, 2 h; active = well fitted inhibition curve with a large enough effect; inconclusive = small, poorly fitted or top-dose-only effect, or another doubt; inactive = no such curve, though single readings can be large or run the other way; also: series mostly up to about 120 µM
Target sequence (P11473 whole entry, looked up): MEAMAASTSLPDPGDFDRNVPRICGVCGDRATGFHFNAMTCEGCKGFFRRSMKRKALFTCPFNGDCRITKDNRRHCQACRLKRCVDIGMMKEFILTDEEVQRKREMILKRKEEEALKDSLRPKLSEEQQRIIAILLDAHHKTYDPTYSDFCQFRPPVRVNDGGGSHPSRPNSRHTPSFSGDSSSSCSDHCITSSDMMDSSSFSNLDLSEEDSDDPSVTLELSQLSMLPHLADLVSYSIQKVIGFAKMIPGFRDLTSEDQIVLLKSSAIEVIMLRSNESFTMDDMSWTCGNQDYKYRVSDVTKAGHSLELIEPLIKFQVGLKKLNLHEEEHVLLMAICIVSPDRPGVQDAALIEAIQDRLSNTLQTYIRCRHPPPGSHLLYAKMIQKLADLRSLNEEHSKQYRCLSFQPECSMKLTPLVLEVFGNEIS
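VDR–SRC2-3 interaction, FP format. Cmpds 23 nl via pintool, brief spin, 2 h ambient incubation.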
Numbers without * were called inactive; ? = inconclusive; & = joins results of further samples; [ ] = another dose, or the depositor's remark. % is scaled to controls: 0 for no effect and ±100 for the full control effect; potency is read from the fitted curve at half-maximal effect. Only part of the results is shown (hit frequency here may not be typical).

SMILES	VDR inh
O=C(c1cccnc1)N1CCN(Cc2ccccc2Br)CC1	6%
O=C1/C(=C\c2ccc(O)cc2)SC(=S)N1/N=C/c1ccc(O)cc1	-1%
COc1cc(C2CC(=O)Nc3c2c(C)nn3-c2nncc(-c3ccc(C)cc3)n2)cc(OC)c1OC (stereo not given)	22%
COc1ccc(S(=O)(=O)N2CCOCC2)cc1C(=O)N(C)Cc1ccccc1F	-1%
NS(=O)(=O)c1ccc(NN=C2CCN(Cc3ccccc3)CC2)c([N+](=O)[O-])c1	-11%
Cc1cccn2c(CN(C)CC3Cc4ccccc4O3)c(C(=O)N3CCCCC3)nc12 (stereo not given)	2%
CC(C)(C)c1ccc(C(=O)NCC(=O)OCc2ccc([N+](=O)[O-])cc2)cc1	-10%
O=C(Cn1cnc2c(nnn2-c2ccc(F)cc2)c1=O)NCc1ccco1	-10%
Cc1ccc(Nc2nc(Cl)nc(N(C)C#N)n2)cc1	-1%
O=C(O)CN(CCN(CC(=O)O)CC(=O)O)CCN(CC(=O)O)CC(=O)O	-2%&3%&6%
COc1ccc(CNC(=O)C2CCN(c3nc(OC)nc(OC)n3)CC2)cc1	-6%
CC(=O)Nc1ccc(NC(=O)COc2ccccc2C(=O)Nc2cccc(Cl)c2Cl)cc1	14%
O=C(CNC(=O)Cc1ccccc1)NCC(=O)OCC(=O)c1ccccc1Cl	17%
CCC(=O)c1ccc(N2CCN(C(=O)c3ccc(Br)cc3)CC2)c(F)c1	11%
N#C/C(=C(/O)c1ccccc1F)c1nc2cc(C(F)(F)F)ccc2s1	-2%
CC(C)c1nnc(NC(=O)CCC(=O)N2CCC(Cc3ccccc3)CC2)s1	-14%
CCCCN1CCNC[C@H]1Cc1ccc(O)cc1	-20%
CCOC(=O)c1c(C)[nH]c(C(=O)N2CCCC(C(=O)c3ccccc3OC)C2)c1C (stereo not given)	12%
CCOC(=O)C(C)CC(C)C(=O)N1CCOCCN(C(=O)C(C)CC(C)C(=O)OCC)CCOCC1 (stereo not given)	-6%
O=C(O)c1cc(-c2ccc(/C=C3\NC(=O)N(c4ccccc4)C3=O)o2)ccc1Cl	15%
CC(=O)c1ccc(S(=O)(=O)NCC(=O)NC(c2nc3ccccc3[nH]2)C(C)C)cc1 (stereo not given)	?
C=CCn1c(N)c(C(=O)OC(C)(C)C)c2nc3ccccc3nc21	?
Cc1ccc(C)n1-n1cnc2sc3c(c2c1=O)CCCCC3	-5%
Cc1ccccc1Nc1nnc(SCC(=O)NC2CCCc3ccccc32)s1 (stereo not given)	9%
COc1cccc(NC(C)(C)c2nnnn2-c2c(C)cccc2C)c1	6%
CCOC(=O)c1ccc(NC(=O)CSc2nnc(CCc3ccc(C)o3)n2-c2ccccc2)cc1	-7%
CCN1CCN(C(CNS(=O)(=O)c2ccc(C)cc2)c2cccnc2)CC1 (stereo not given)	-7%
Cc1ccccc1C(=O)N1CCCC(N2CCN(Cc3ccc4c(c3)OCO4)CC2)C1 (stereo not given)	14%
CS(C)(=O)=O	12%
C=C(C)[C@@H]1CCC2(C(=O)O)CC[C@]3(C)[C@H](CC[C@@H]4[C@@]5(C)CCC(=O)C(C)(C)[C@@H]5CC[C@]43C)[C@@H]12 (stereo not given in full)	-17%
O=C1c2ccccc2C(=O)N1c1ccc(S(=O)(=O)N2CCOCC2)c2ccccc12	-4%
Cc1ccc(C(C)C)c(OCc2ccc(-c3nnco3)cc2)c1	20%
COc1ccccc1NC(=S)N1CC(C)OC(C)C1 (stereo not given)	-3%
O=C(NC1CCCc2ccccc21)c1ccc2c(c1)sc1nc(-c3ccccc3)cn12 (stereo not given)	13%
Cc1nc2ccc(Cl)cc2c(-c2ccccc2)c1C(=O)N(C)C	-13%
CN(C(=O)c1ccnn1C)C1CCCN(Cc2ccccc2F)C1 (stereo not given)	16%
Cc1ccc2nc(/C(C#N)=C/c3ccc(O)c(O)c3)[nH]c2c1	?
COc1cccc(CNC(=O)COC(=O)c2cccc(S(=O)(=O)N3CCCC3)c2)c1	-5%
Nc1cc(Cl)ccc1C(=O)OCC(=O)N1CCCCCC1	-18%
COC(=O)c1cc(Cl)c(NC(=O)C(C)C)cc1OC	-13%
CC(Oc1ccc2ccccc2c1)C(=O)NNC(=O)Nc1ccccc1 (stereo not given)	17%
O=C(COC(=O)CCC(=O)c1ccc(Cl)cc1)NCc1ccc(F)cc1	-3%
CCOC(=O)c1c(C)nc(C)c(C(=O)OCC)c1-c1ccco1	-2%
O=C(C1CC1)N1c2ccccc2Sc2ccccc21	11%
COc1ccccc1CNC(=O)CSc1ccc(-c2cccs2)nn1	-4%
O=C1C(=O)N(O)C2CCCCC2N1O (stereo not given)	-22%
Cc1ncc(C[n+]2csc(CCOC(=O)CC34CC5CC(CC(C5)C3)C4)c2C)c(N)n1	-9%
Cc1nc2c(-c3ccc(F)cc3)c(C)nn2c(C)c1CCC(=O)Nc1ccccc1F	-7%
COc1ccccc1C(=O)/C=C/c1ccc(N2CCCCC2)c([N+](=O)[O-])c1	79µM*
O=C(c1cccc(S(=O)(=O)N2CCN(c3ccc(F)cc3)CC2)c1)N1CCCC1	33%[activator]
CCOc1ccc(N(CC(=O)NC2CCCC2)S(=O)(=O)c2c(C)noc2C)cc1	-7%
O=C(c1ccc(C(F)(F)F)cc1)n1ccc(-c2cccs2)n1	-4%
Cc1nc2ccccn2c1C(=O)OCC#N	-11%
Cc1cccc(N2CC(C(=O)NCCC3=CCCCC3)CC2=O)c1C (stereo not given)	5%
O=C(NCCc1ccccc1)c1cnn2c(C(F)F)cc(C3CC3)nc12	-1%
C=CCc1ccccc1OCCCCN1CCCC1	11%
C=CC[C@@H](CC(=O)N[C@@H](CO)Cc1ccccc1)C(=O)N[C@H](COC(=O)[C@@H](CC=C)Cc1ccc(F)cc1)Cc1ccccc1	4%
Cc1cccc(NC(=O)CCc2c(C)nn(-c3ccc(N4CCOCC4)nn3)c2C)c1	-12%
Cc1ccc(F)c([C@H]2C3C=CCC(c4ccccc4)C3C(=O)N2Cc2ccccc2)c1 (stereo not given in full)	-10%
O=C(Cc1c(F)cccc1Cl)N1CCN(C(=O)c2ccco2)CC1	-1%

Remaining list, next part.
SMILES	VDR inh
CC(C)O/C(=N/S(=O)(=O)c1ccc(Cl)cc1)c1ccccc1	4%
Cn1c(Cn2c(=O)sc3ccccc32)nnc1SCC(=O)NCc1ccc(F)cc1	-7%
N#CCSc1nc2ccccc2c(=O)n1CCC(=O)NCCc1ccccc1	8%
CCOc1ccccc1CNc1ncnc2onc(-c3ccc(F)cc3)c12	-1%
CN(C(=O)c1ccc(-c2ccccc2)cc1)C1CCCCC1	-13%
CCNC(=O)CSc1nnc(-c2cccc(S(=O)(=O)N3CCOCC3)c2)o1	12%
COc1cc(Cl)c(C)cc1NC(=O)COc1cc(C)nc(C(C)C)n1	-9%
O=[N+]([O-])c1ccc(-c2csc(Nc3ccccc3)[n+]2Cc2ccccc2)cc1	-1%
Cc1ccc(NC(=O)CN2C(=O)COc3ccc(S(=O)(=O)N4CCCCC4)cc32)cc1N(C)C	4%
O=C(NCc1cccc(Br)c1)C1CCN(C(=O)c2sccc2-n2cccc2)CC1	-11%
Cc1cc(SCC(=O)OCC(=O)N(C)C2CCS(=O)(=O)C2)c(C)cc1Br (stereo not given)	4%
CCOc1ccc(N(C(=O)c2cc3ccccc3oc2=O)C2C=CS(=O)(=O)C2)cc1 (stereo not given)	-20%
O=C1C2C3C=CC(C4CC34)C2C(=O)N1Cc1ccco1 (stereo not given)	-12%
Oc1ccc(Cl)cc1C=Nc1ccc2c3c(cccc13)CC2	-19%
COc1cc(NC(=O)c2cc3nc(C)cc(C)n3n2)c(OC)cc1Cl	2%
Cc1ccccc1NC(=O)Cc1nc(COC(=O)Cc2ccccc2F)cs1	-7%
CCc1ccc(OCCCOc2ccc(C=O)cc2)cc1	-1%
CCOc1ccc(C(=O)OCn2nnc3ccccc3c2=O)cc1OC	15%
c1ccc(CCNc2nc3ccccc3s2)cc1	6%
Cc1ccc(S(=O)(=O)N2CCCc3cc(NS(=O)(=O)c4ccc(F)c(C)c4)ccc32)cc1	-5%
CC(C)C(c1nnnn1C1CCCC1)N1CCOCC1 (stereo not given)	-7%
Cc1c(C(=O)N2CCCC2)oc2c1-c1nn(CC(=O)NCCCN3CCCCC3)cc1CC2	18%
COc1ccc2oc(=N)c(-c3nnc4n3CCCCC4)cc2c1	-11%
COc1cc(OC)c2c(N)c(C#N)c(C(F)(F)C(F)(F)F)nc2c1	-12%
N#Cc1c(N)nc2c(c1-c1ccncc1)CCCCCC2	18%
CCCNc1ccc(-c2nc(-c3ccccn3)no2)cc1[N+](=O)[O-]	13%
CC(C)[C@H](NC(=O)c1ccccc1F)C(=O)Nc1nc2c(s1)CCCC2	-7%
CN(C)CCN(Cc1ccco1)S(=O)(=O)c1ccc(-c2ccc(=O)[nH]n2)s1	6%
Cc1cc(C)n(-c2c(C)[nH]c3ccccc23)n1	-17%
CCOCCCNC(=O)c1[nH]c(C)c(C(C)=O)c1C	9%
Cc1nc2c(cc1C(=O)N/N=C/c1ccc([N+](=O)[O-])cc1)c(=O)n(C)c(=O)n2C	-8%
CSCCC(NC(=O)c1ccco1)C(=O)NCC(c1ccccc1)N(C)C (stereo not given)	-8%
CC(NC(=O)/C=C/c1ccco1)c1nc2ccccc2n1Cc1cccc(Cl)c1 (stereo not given)	-23%
O=C(NCC(=O)N1CCOCC1)OCc1ccccc1	3%
O=C(CSc1nnc(-c2cccnc2)s1)Nc1ccc(C(=O)O)cc1	-4%
Cc1ccc(-c2nc(N)s[n+]2-c2ccccc2)cc1	-25%

Arranged by value in VDR inh (high to low): 3 of the compounds above.
SMILES	VDR inh
COc1cc(NC(=O)c2cc3nc(C)cc(C)n3n2)c(OC)cc1Cl	2%
CCOC(=O)c1c(C)nc(C)c(C(=O)OCC)c1-c1ccco1	-2%
Cc1ccccc1NC(=O)Cc1nc(COC(=O)Cc2ccccc2F)cs1	-7%

Remaining list, next part
SMILES	VDR inh
CCOc1ccc(NC(=O)C(=O)N/N=C\c2ccc(CNS(=O)(=O)c3ccccc3)o2)cc1	-2%
CCOc1ccc(CCNC(=O)c2nnc(CS(=O)(=O)c3ccccc3)o2)cc1OCC	7%
COc1ccc(S(=O)(=O)N2CCC(C(=O)NC3CC3)CC2)cc1C	1%
COc1ccc(-c2c(C)n([O-])c3c([n+]2=O)CCC3)cc1OC	12%
CCOCc1c(C(=O)OCC(=O)NCc2ccc(F)cc2)oc2ccccc12	-18%
COc1ccc(Nc2cc(=O)n(-c3ccccc3)c3c2c(=O)n(C)c(=O)n3C)cc1	-5%
CCOC(=O)C1=CN(Cc2cccc(F)c2)S(=O)(=O)N(C)C1c1ccc2ccccc2c1 (stereo not given)	5%
CSc1ccccc1Sc1cc(C(=O)O)c2ccccc2n1	-2%
Cc1ccc(C)c(-n2c(CCC(=O)O)ccc2-c2ccc(Cl)cc2)c1	?
O=C(Nc1ccc(Br)c(Cl)c1)c1ccco1	9%
O=C(Cc1c(Cl)cccc1Cl)OCC(=O)N1CCN(C(=O)c2ccco2)CC1	0%
O=C(Cn1c2ccccc2c(=O)c2ccccc21)N/N=C/c1cc([N+](=O)[O-])ccc1N1CCCCCC1	-1%

Single values from above:
`CCOc1ccc(NC(=O)C(=O)N/N=C\c2ccc(CNS(=O)(=O)c3ccccc3)o2)cc1` in VDR inh shows -2%
`CCOc1ccc(CCNC(=O)c2nnc(CS(=O)(=O)c3ccccc3)o2)cc1OCC` in VDR inh shows 7%
`COc1ccc(S(=O)(=O)N2CCC(C(=O)NC3CC3)CC2)cc1C` in VDR inh shows 1%
`O=C(Cn1c2ccccc2c(=O)c2ccccc21)N/N=C/c1cc([N+](=O)[O-])ccc1N1CCCCCC1` in VDR inh shows -1%

Other records follow.
SMILES	VDR inh
O=C(N/N=C/c1cccc([N+](=O)[O-])c1)c1cnccn1	14%
COc1ccc2c(c1)C(=NN)c1cc(OC)ccc1-2	2%
COc1ccc(C)cc1-n1c(SCC(=O)Nc2cccc(C(=O)O)c2)nc2ccccc2c1=O	-3%
CCCCCn1c(=O)[nH]c2cc(C(=O)Nc3ccc(OC)cc3)ccc2c1=O	27%
O=c1c2ccccc2n(Cc2ccc(Cl)cc2)c(=O)n1Cc1ccco1	-2%
CCOC(=O)c1c(C)[nH]c(C)c1S(=O)(=O)NC(CC)CN1CCOCC1 (stereo not given)	11%
COc1ccc(Oc2c(C)oc3c(CN4CCOCC4)c(O)ccc3c2=O)cc1	-1%
O=C(Nc1ccc(F)cc1F)N1CCCCC1c1cccnc1 (stereo not given)	7%
Cc1cc(C)nc(NS(=O)(=O)c2ccc(NC(=S)NC(=O)c3ccco3)cc2)n1	3%
CSCCC(=O)N1CCCC(CO)(CCCc2ccccc2)C1 (stereo not given)	0%
Cc1ccc(/C(O)=C2\C(=O)C(=O)N(CCN(C)C)C2c2ccccc2F)cc1 (stereo not given)	4%
CN(C)C(CNS(=O)(=O)c1ccc(Cl)cc1F)c1ccco1 (stereo not given)	10%

Quoted at random: six records from the list, in no set order.
SMILES	VDR inh
O=C(N/N=C/c1cccc([N+](=O)[O-])c1)c1cnccn1	14%
COc1ccc(C)cc1-n1c(SCC(=O)Nc2cccc(C(=O)O)c2)nc2ccccc2c1=O	-3%
O=C(Nc1ccc(F)cc1F)N1CCCCC1c1cccnc1 (stereo not given)	7%
CN(C)C(CNS(=O)(=O)c1ccc(Cl)cc1F)c1ccco1 (stereo not given)	10%
Cc1ccc(/C(O)=C2\C(=O)C(=O)N(CCN(C)C)C2c2ccccc2F)cc1 (stereo not given)	4%
CCOC(=O)c1c(C)[nH]c(C)c1S(=O)(=O)NC(CC)CN1CCOCC1 (stereo not given)	11%

(next part)
SMILES	VDR inh
N#Cc1ccc(CSCC(=O)NN=C2CCCC2)cc1	10%
O=C(NCc1ccccc1Cl)C(=O)c1cn(CC(=O)N2CCOCC2)c2ccccc12	15%
COc1ccc(CC(=O)OCCc2cc3cc(OC)c(OC)cc3c(=O)o2)cc1	-21%
CCc1c(O)nc(SCC(=O)N(CC)CC)[nH]c1=O	-7%
Cc1ccc(C)c(NC(=O)CSc2c3c(nc4ccc(Cl)cc24)CCCC3)c1	-20%
Cc1cc(OC(=O)c2cccc([N+](=O)[O-])c2)c(C)cc1CN1CCOCC1	9%
